Cruzain inh noDet = cruzain (T. cruzi) inhibition without detergent; purified cruzain, Z-FR-AMC fluorescence, no detergent; P25779; AID 1476; Potency, µM, inactives show max response, negative = inhibition, actives largely listed as inhibitors; actives 2.3% (n = 200,000); active = well fitted curve in the direction sought with a large enough effect; inconclusive = small, poorly fitted or top-dose-only effect, or another doubt; inactive = no such curve, though single readings can be large; an effect the other way counts as inactive or inconclusive;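 note: plate controls were enzyme without inhibitor for no effect and buffer without enzyme for full effect; nearly all actives have a fitted effect of over 40% in size; top concentration of the series not given in the record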
Target sequence (P25779 123-467 limits assumed): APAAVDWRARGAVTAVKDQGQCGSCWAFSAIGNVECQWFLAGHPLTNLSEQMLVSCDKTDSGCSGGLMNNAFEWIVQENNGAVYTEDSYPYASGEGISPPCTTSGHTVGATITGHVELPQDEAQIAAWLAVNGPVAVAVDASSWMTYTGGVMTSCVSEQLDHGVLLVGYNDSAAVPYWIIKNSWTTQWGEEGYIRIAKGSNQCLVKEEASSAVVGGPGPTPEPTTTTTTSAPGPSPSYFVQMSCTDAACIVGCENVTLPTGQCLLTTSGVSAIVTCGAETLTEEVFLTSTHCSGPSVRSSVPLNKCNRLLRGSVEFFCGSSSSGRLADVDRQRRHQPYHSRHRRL
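Purified cruzain at 1.5 nM, pre-incubated 15 min with compound at room temperature in 100 mM sodium acetate pH 5.5, 5 mM DTT, 0.00005% Triton X-100. Reaction started with 2 uM Z-FR-AMC; AMC fluorescence increase over 60 s gives rate.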
MARV entry inh = Marburg virus entry inhibition; Marburg virus pseudotyped entry inhibition, cell reporter; control for the full effect not named in the record; about a third of the inactives were read at about 46 µM; Potency, µM (series often up to 37.8 µM), for inactives: at the top dose activity change, negative = inhibition, actives largely listed as inhibitors; actives 1.8% (n = 300,000); active = well fitted inhibition curve with a large enough effect; inconclusive = small, poorly fitted or top-dose-only effect, or effect the other way; inactive = flat fitted curve, though single readings scatter; tested in HEK293 cells; about a fifth of its hits are not listed in these tables; note: % is set by controls: 0 for no effect and ±100 for the full control effect; luciferase read-out
StopGo reporter = FMDV 2A StopGo reporter, luciferase signal; actives 1.2% (n = 410,000); Potency, µM (doses to about 57.9 µM), inactives show at the highest dose signal change, negative = less light; human cells with a luciferase reporter of 2A StopGo recoding; control for the full effect not named in the record; AID 1159524; active = well fitted falling curve with a large enough effect; inconclusive = small, poorly fitted or top-dose-only effect; inactive = no such curve, though single readings can be large or run the other way; tested in HEK293T cells; note: % is set by controls: 0 for no effect and ±100 for the full control effect; nearly all actives have a fitted effect of over 45% in size; luciferase light after 4 h
Cruzain inh Det = inhibitors of Trypanosoma cruzi cruzain with detergent. purified cruzain, Z-FR-AMC fluorescence, 0.01% Triton. P25779. Potency, µM, for the others: max response, negative = inhibition, usual class: inhibitors. actives 0.43% (n = 200,000); active = well fitted curve in the direction sought with a large enough effect; inconclusive = small, poorly fitted or top-dose-only effect, or another doubt; inactive = no such curve, though single readings can be large; an effect the other way counts as inactive or inconclusive;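 note: plate controls were neutral wells for no effect and buffer without enzyme for full effect; nearly all actives have a fitted effect of over 40% in size; top concentration of the series not given in the record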
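Sodium acetate buffer (100 mM, pH 5.5) containing 5 mM DTT and 0.01% Triton X-100 hosted 1.5 nM cruzain and test compound for 15 min at room temperature. Cleavage of 2 uM Z-FR-AMC was then tracked by fluorescence.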
SARS PLP yeast = blocks SARS-CoV papain-like protease in a yeast assay; Potency, µM (titrated, usually from 32.9 µM), without a hit: at the top dose activity, positive = growth rescue; actives 0.19% (n = 330,000); AID 485353; S. cerevisiae expressing SARS-CoV PLpro, growth rescue; control for the full effect not named in the record; note: 0% is about no effect; nearly all actives have a fitted effect of over 55% in size; growth read by luminescence after 48 h
Lassa entry inh = Lassa virus entry inhibition. Lassa virus pseudotype entry inhibition, cell reporter; control for the full effect not named in the record. Potency, µM (titrated, usually from 37.9 µM), without a hit: at the highest dose activity change, negative = inhibition, hits mostly inhibitors. actives 1.2% (n = 300,000); active means well fitted inhibition curve with a large enough effect; inconclusive means small, poorly fitted or top-dose-only effect, or effect the other way; inactive means flat fitted curve, though single readings scatter; tested in HEK293 cells; note: % is set by controls: 0 for no effect and ±100 for the full control effect; nearly all actives have a fitted effect of over 50% in size; luciferase read-out
RE007 growth inh = less growth of the S. pombe RE007 Vpr strain | S. pombe RE007 Vpr strain, BacTiter-Glo ATP luminescence, 24 h; control for the full effect not named in the record | actives 0.21% (n = 360,000) | Potency, µM (highest dose often 92.2 µM), without a hit: at the highest dose activity change, negative = less growth; active = well fitted falling curve with a large enough effect; inconclusive = small, poorly fitted or top-dose-only effect; inactive = no such curve, though single readings can be large or run the other way;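 note: % is set by controls: 0 for no effect and ±100 for the full control effect; nearly all actives have a fitted effect of over 50% in size; the assay follows cell death caused by Vpr and the record does not say whether a fall means rescue or toxicity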
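Fission yeast RE007 carrying one integrated HIV-1 vpr copy, seeded at OD 0.01 in PMG+AL medium with 23 nL pinned compound. Grown 24 h at 30 degrees; viability read by BacTiter-Glo luminescence after 5 min.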
NS1 function inh = influenza NS1 inhibition; Potency, µM (highest dose often 46.1 µM), for the others: at the top dose activity, positive = more growth; AID 2326; S. cerevisiae slowed by influenza A NS1, growth recovery by OD600; actives 0.4% (n = 270,000); note: actives are rising curves; nearly all actives have a fitted effect of over 50% in size
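Read-out: OD600 growth recovery of NS1-expressing budding yeast. Cells grown overnight at 30C in -URA glucose medium, washed, resuspended and diluted 1:100 in 2% galactose assay medium, pH 6.0. Same strain lacking NS1 served as positive control.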
Active calls of the source: *; ? = inconclusive; nt = not tested or not shown; [ ] = remark or other dose. Unless noted, calls come from the whole dose curve; as a rule, active means well fitted rising curve with a large enough effect; inconclusive means small, poorly fitted or top-dose-only effect; inactive means no such curve, though single readings can be large or run the other way. Potency is the fitted concentration of half-maximal effect. No enrichment for hits, and some 4.6% of all compounds hit somewhere here.

SMILES | Cruzain inh noDet | MARV entry inh | StopGo reporter | Cruzain inh Det | SARS PLP yeast | Lassa entry inh | RE007 growth inh | NS1 function inh
C[C@]12CC[C@H](O)CC1=CC(=O)C1C2CC[C@]2(C)C(=O)[C@H](O)CC12 (stereo not given in full) | nt | 3%[46.1 µM] | -1% | nt | 1% | 1%[46.1 µM] | 1% | nt
CC(C)CN1C(=O)c2ccc(NC(=O)Cc3ccccc3)cc2C1=O | nt | nt | 17% | nt | 0% | nt | -6% | 2%
CCOC(=O)C1C(=O)CC(C)(O)C(C(=O)OCC)C1c1ccc(NC(C)=O)cc1 (stereo not given) | nt | -6%[46.1 µM] | -2% | nt | 4% | 2% | -1% | nt
Cc1[nH]c2ccccc2c1/C=N/NC(=O)c1cccc(F)c1 | nt | nt | 6% | nt | 0% | nt | 3% | 1%
CN1C(=O)NC(c2ccccc2)C2=C1CN(Cc1ccco1)C2=O (stereo not given) | 8% | nt | -10% | 8.1% | 0% | nt | 5% | -9%
Cn1c(=O)oc2cc(S(=O)(=O)N3CCCCC3)ccc21 | nt | 0%[46.1 µM] | 1% | nt | -1% | -3%[46.1 µM] | 4% | 2%
COc1ccc(NC(=O)N2CCCC(c3nc(-c4ccc(F)cc4)no3)C2)cc1 (stereo not given) | nt | 3% | 38%[activator] | nt | 9% | 3% | 2% | -5%
O=C(Cc1cccs1)N(Cc1cccs1)C1(C(=O)NC2CCCCC2)CCCCC1 | 1% | ? | -23% | -2.8% | -1% | -10% | 4% | -3%
CCc1nn2c(=O)cc(COC(=O)COc3ccc(OC)cc3)nc2s1 | -9% | nt | 0% | -1.2% | nt | 0%[46.1 µM] | nt | nt
Cc1cccc(NC(=S)c2nc3ccccc3s2)c1 | -2% | -13% | 22% | 1.8% | 1% | ? | -11% | 2%
CCc1ccc(C(=O)c2cn(CC(=O)Nc3cccc(OC)c3)c3cc4c(cc3c2=O)OCO4)cc1 | -26% | ? | -12% | -6.5% | nt | 9%[46.1 µM] | nt | nt
COc1ccc2c(c1)c(CC(=O)Nc1cccc(F)c1C)c(C)n2C(=O)c1ccc(Cl)cc1 | 0% | -18%[46.1 µM] | -3% | 2.1% | nt | ? | nt | nt
CCN(CC)CCNC(=O)c1ccc(-n2c(C)cc3c2CCCC3=O)cc1 | nt | ? | 2% | nt | 5% | -26%[46.1 µM] | 5% | nt
COc1ccccc1NC(=O)CSc1nc(O)c(C/C=C/c2ccccc2)c(=O)[nH]1 | -14% | 1%[46.1 µM] | 0% | -7.4% | nt | -2%[46.1 µM] | nt | nt
COC(=O)c1ccc(CSc2ncnc3c2oc2ccccc23)o1 | 3% | -29% | -4% | 5.8% | -1% | -4% | 8% | 0%
O=C(O)C1(NS(=O)(=O)c2ccc(F)c(Cl)c2)CCCCC1 | 3% | 3% | -2% | -1.3% | -1% | -20% | -4% | -2%
COc1ccc2cc3cc(C(=O)NC4CC4)sc3nc2c1 | nt | nt | 16µM* | nt | 0% | nt | -4% | -20%
Cc1ccc(N/N=C/c2c(O)cc(C)oc2=O)cc1 | 6% | ? | 18% | -1.2% | -1% | -2% | 2% | -11%
COc1ccc(-c2cc(-c3ccccc3)c(C#N)c(S(C)=O)n2)cc1 (stereo not given) | ? | ? | ? | -3.6% | 0% | ? | -6% | -6%
CCc1ccc(CN2CCCC(C(=O)Nc3ccc(-c4cscn4)cc3)C2)o1 (stereo not given) | nt | nt | -26% | nt | -1% | nt | -10% | -4%
COc1cccc(NC(=O)Cn2c(=O)n(Cc3ccc(C(=O)NCc4ccc5c(c4)OCO5)cc3)c(=O)c3ccccc32)c1 | 13µM* | -18%[46.1 µM] | -17% | -2.0% | nt | -9%[46.1 µM] | nt | nt
CC1CCCCN1C(=O)CCn1c(=O)oc2ccccc21 (stereo not given) | nt | nt | 17% | nt | -3% | nt | -8% | 2%
CN1CCN(C(=O)c2ccccc2NC(=O)Cc2ccccc2)CC1 | 2% | 17%[46.1 µM] | -5% | 2.1% | 3% | -4% | 0% | 0%
COc1cccc(N2CCN(C(=O)c3ccc(CS(=O)c4ccccc4Cl)o3)CC2)c1 (stereo not given) | nt | nt | -9% | nt | 5% | nt | -8% | -2%
C=CCc1cccc(/C=N/NC(=O)COc2ccc(-n3cnnn3)cc2)c1O | nt | nt | -4% | nt | -2% | nt | 5% | 2%

Continued.
SMILES | Cruzain inh noDet | MARV entry inh | StopGo reporter | Cruzain inh Det | SARS PLP yeast | Lassa entry inh | RE007 growth inh | NS1 function inh
CN(C)C(C)(C)C#CCCCCC#CC(C)(C)N(C)C | -5% | ? | nt | -0.2% | 3% | ? | -1% | -1%
COc1ccc2cc(S(=O)(=O)N3CCCC(C)C3)ccc2c1 (stereo not given) | nt | -24%[46.1 µM] | -2% | nt | -7% | ? | 0% | 7%
CC(C(=O)NCc1ccco1)n1cc([N+](=O)[O-])cn1 (stereo not given) | nt | 1%[46.1 µM] | 11% | nt | -3% | 21% | 3% | nt
Cc1cccc(CNC(=O)Cc2ccc(NC(=O)N3CCCCc4ccccc43)cc2)c1 | 7% | nt | 0% | -4.5% | nt | ? | nt | nt
CCc1ccc(NC(=O)C(=O)NCCN2CCN(Cc3ccc([N+](=O)[O-])cc3)CC2)cc1 | -3% | ? | ? | -3.5% | 21% | -9% | 4% | -3%
O=C(/C=C/c1ccccc1Cl)NCc1cccs1 | -16% | 14% | 29% | -3.3% | -14% | 18µM* | 4% | 0%
NS(=O)(=O)c1cccc(NC(=O)COC(=O)C2CCN(S(=O)(=O)c3cccs3)CC2)c1 | nt | 5%[46.1 µM] | -4% | nt | 1% | -5% | -11% | -3%
CC(=O)NC(Cc1ccccc1F)C(=O)NC1CCN(S(=O)(=O)c2ccccc2)CC1 (stereo not given) | nt | -7%[46.1 µM] | 11% | nt | 12% | nt | -9% | 2%
CSCC[C@H](NC(=O)c1cccc(S(=O)(=O)N2CCCCC2)c1)c1nc2ccccc2[nH]1 | nt | ? | 16% | nt | 0% | ? | -2% | nt
COc1ccc(-c2c(C)c3ccc(O)cc3oc2=O)cc1 | nt | nt | 64%[activator] | nt | -3% | nt | 9% | -15%
C=CCn1c(SCC(=O)N2CCN(c3ccc(F)cc3)CC2)nnc1-c1ccco1 | 2% | 2% | ? | 0.3% | 3% | 10% | 4% | -7%
COc1ccc(S(=O)(=O)c2cc3cc(C(C)(C)C)cc(O)c3oc2=O)cc1 | 9% | -3%[46.1 µM] | -4% | -11% | nt | -4%[46.1 µM] | nt | nt
CCNS(=O)(=O)c1ccc(NC(=O)Nc2ccccc2OC)cc1 | nt | 9%[46.1 µM] | 20% | nt | 0% | -15% | 15% | 2%
COc1ccccc1N1CCN(CCCCOc2ccc(C)cc2C)CC1 | nt | nt | -10% | nt | -7% | nt | -7% | -20%
CCc1cc2c(NCCC(=O)O)nc(C)nc2s1 | -5% | -12% | 11% | 0.2% | ? | 7% | -1% | -5%
CCOC(=O)C1CCCN(C(=O)Cn2cnc3c2c(=O)n(C)c(=O)n3C)C1 (stereo not given) | -4% | 27% | -14% | 4.7% | -10% | ? | -11% | 2%
CCOC(=O)c1c(-c2ccccc2)csc1NC(=O)CCN1CCOCC1 | 14% | -37% | -12% | 1.9% | -44% | ? | 17% | -39%
COCCCC1CCN(C(=O)C2CCC(=O)N(CCc3cccc(F)c3)C2)CC1 (stereo not given) | nt | 26% | -14% | nt | 4% | -1% | 5% | -4%
Cc1cc(/C=N/NS(=O)(=O)c2ccc(F)c(Cl)c2)no1 | nt | 6%[46.1 µM] | -4% | nt | 0% | -3% | -5% | -1%
Cc1ccc(C(=O)N2CCN3C(=O)c4ccccc4C23c2ccccc2)cc1 (stereo not given) | nt | 7%[46.1 µM] | -4% | nt | 1% | -1% | 4% | -6%
CC(=O)Nc1ccc2nc(SCC(=O)NCCOc3ccccc3)sc2c1 | nt | -10% | -2% | nt | -4% | -18% | 3% | nt
COc1ccc(NC(=O)CCn2cccc2)c(OC)c1 | nt | 26%[46.1 µM] | 9% | nt | 0% | nt | 19% | nt
CC(=O)C1=C(O)C(=O)N(CCc2c[nH]c3ccccc23)C1c1ccco1 (stereo not given) | -3% | 5% | -17% | -10% | -2% | -10% | -1% | 3%
COc1ccc(S(=O)(=O)N2CCCCCC2)cc1C(=O)OCc1cccc(OC)c1OC | nt | -29% | -3% | nt | -1% | -3% | -13% | nt
O=P(NC1CCCCC1)(c1ccccc1)c1ccccc1 | nt | ? | 20% | nt | nt | ? | -21% | nt

The listing continues.
SMILES | Cruzain inh noDet | MARV entry inh | StopGo reporter | Cruzain inh Det | SARS PLP yeast | Lassa entry inh | RE007 growth inh | NS1 function inh
CCc1ccc(-c2nn(CC(=O)NC3CCCCC3)c3c2cnc2ccc(F)cc23)cc1 | -3% | nt | 41%[activator] | -1.4% | nt | -11%[46.1 µM] | nt | nt
c1cnc2ccc(C(c3nnnn3C3CCCC3)N3CCSCC3)cc2c1 (stereo not given) | 9% | -9% | 12% | -0.2% | 29% | -5% | -6% | 10%
COc1ccccc1-c1nc(C#N)c(N2CCN(c3ccccc3)CC2)o1 | -29% | 2% | 7% | ? | -8% | -3% | -12% | nt
COc1ccc(NC(=S)NCCc2ccccc2)c(C)c1 | nt | -3%[46.1 µM] | 10% | nt | -7% | -19%[46.1 µM] | -2% | -4%
CCOCCCNC(=S)Nc1ccc2nc3n(c(=O)c2c1)CCCCC3 | nt | ? | -17% | nt | 0% | 25%[46.1 µM] | -9% | nt
COc1cc(/C=N/NC(=O)CCn2c3ccccc3c3ccccc32)cc(OC)c1OC | ? | -1% | ? | -10.0% | -5% | nt | -6% | 21%
CCOC(=O)c1[nH]n(-c2ccc(Cl)cc2)c(=O)c1C | 3% | 5% | -23% | -0.2% | -29% | 6% | 4% | -5%
CCOc1ccc(NC(=S)NC(C)CCc2ccccc2)cc1 (stereo not given) | nt | 15%[46.1 µM] | -17% | nt | -3% | -23% | 1% | -38%
Cc1ccc(-c2nc3ccc(Cl)cn3c2Nc2ccccc2C)s1 | 0% | 11%[46.1 µM] | 1% | -2.7% | nt | ? | nt | nt
COCCCN1C(=O)c2ccc(C(=O)Nc3ccccc3Cl)cc2C1=O | nt | nt | 28% | nt | 0% | nt | -7% | -5%
CC(C)(C)N(NC(=O)Nc1ccc(F)cc1)C(=O)c1ccccc1 | 8% | -7% | -11% | -2.2% | -10% | 0% | -1% | -1%

Source: PubChem
